# Hedgehog inh = blocks Sonic Hedgehog signaling | inhibition, % (no concentration beside the values) | 22,000 compounds, 2.1% hits | AID 2313 | Shh-LIGHT2 Gli-luciferase reporter, 30 h;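 active means replicate mean of 65% or more; inconclusive means mean lower but half the replicates past it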;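 further: pathway switched on by Shh-conditioned medium diluted 1 in 25 in low serum; 100 nL library stock added to about 40 µL; 0% = median of neutral wells and 100% = positive control level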
# MITF inh = inhibitors of MITF | inhibition, % (concentration not given with the values) | 37,000 compounds, 0.28% hits | TRPM1 promoter luciferase, luminescence, 24 h | AID 2240;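 active means most replicates at 85% or more, or half of them and the mean; inconclusive means half reach 85% but not the mean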;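 further: human melanocyte line stably carrying TRPM1 promoter luciferase reporter; 0% = vehicle wells and 100% = a positive control; the first replicate is given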
# PD-1 reverse act = activators reversing PD-1 mediated T-cell inhibition. AID 2316. primary human CD4 T cells, PD-L1 beads, CellTiter-Glo 96 h. activation, % (no concentration beside the values). 29,000 tested, under 10 active;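 active means replicate mean of 50% or more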;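 further: 0% = median vehicle wells and 100% = positive control; 100 nL library stock added to about 50 µL; numbers are from one replicate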
# YB-1 expr inh = YB-1 expression inhibition; U2OS, qRT-PCR YB-1 vs CDIP delta delta Cp, 16 h; hits give high values; zero = DMSO, each unit about twofold; delta delta Cp (YB-1 minus CDIP) (test concentration not listed); 30,000 compounds, 0.37% hits; AID 434959;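 active means delta delta Cp rounded down to an integer at or above 3, about 3 SD of DMSO wells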;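 further: higher means less YB-1 transcript or more CDIP transcript relative to DMSO; stock transfer was 100 nL into about 100 µL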
# Active calls of the source: *; ? = inconclusive; · = not tested or not shown.
SMILES,Hedgehog inh,MITF inh,PD-1 reverse act,YB-1 expr inh
Cc1ccc(S(=O)(=O)Nc2ccc3c(c2)CC(=O)N([C@@H](C)CO)C[C@H](C)[C@H](CN(C)C(=O)Nc2cccc4ccccc24)O3)cc1,·,-14,-0.7,-0.25
CNC[C@H]1Oc2ccc(NS(=O)(=O)c3ccc(C)cc3)cc2CC(=O)N([C@@H](C)CO)C[C@@H]1C,-30,-8,0.0,0.27
C[C@@H]1CN([C@@H](C)CO)C(=O)c2cc(NS(=O)(=O)c3ccccc3)ccc2O[C@@H]1CN(C)CC1CC1,-11,2,-0.1,0.23
C[C@H]1CN([C@@H](C)CO)C(=O)Cc2cc(NC(=O)Nc3ccc(C(F)(F)F)cc3)ccc2O[C@@H]1CN(C)CC1CC1,24,-11,2.4,-0.015
COc1cc(NC(=S)NCc2cccnc2)c(OC)cc1Cl,·,-5,0.4,·
COC(=O)c1c(NC(=O)c2ccccc2N(C)S(C)(=O)=O)sc2c1CCCC2,·,-18,-2.3,·
C[C@@H]1CN([C@@H](C)CO)C(=O)c2cccc(NC(=O)C3CC3)c2O[C@@H]1CN(C)S(=O)(=O)c1cccs1,-55,-11,0.5,0.075
COc1ccc(CN(C)C[C@H]2Oc3ccc(NC(=O)Cc4ccccc4)cc3C(=O)N([C@@H](C)CO)C[C@H]2C)cc1,-6,4,-0.6,-0.15
Cc1ccc([N+](=O)[O-])cc1NC(=O)CN(C)S(=O)(=O)c1ccc(Cl)cc1,·,24,-0.8,·
Cc1cc(-c2ccccc2)nc(SCC(=O)Nc2sc3c(c2C#N)CCCC3)n1,·,0,-0.6,·
Cc1ccc(N(C(C)C(=O)Nc2cccc(Br)c2)S(C)(=O)=O)cc1C (stereo not given),·,16,-2.4,·
COc1ccc(S(=O)(=O)N(C)C[C@H]2Oc3c(NC(=O)NC(C)C)cccc3C(=O)N([C@H](C)CO)C[C@H]2C)cc1,20,1,-1.2,0.12
Cc1noc(C)c1NC(=O)N(C)C[C@H]1OCCCC[C@@H](C)Oc2ccc(NS(C)(=O)=O)cc2C(=O)N([C@H](C)CO)C[C@@H]1C,-30,-10,·,0.37
COc1ccc(NC(=O)N(C)C[C@@H]2Oc3ccc(NS(C)(=O)=O)cc3C(=O)N([C@H](C)CO)C[C@@H]2C)cc1,·,5,·,-0.019
Cc1c(C(=O)N(C)C)sc(NC(=O)c2cc(-c3cccnc3)nc3c(C)c(Cl)ccc23)c1C#N,·,35,-0.2,·
Cc1cccc(Oc2coc3cc(OCC(=O)Nc4ccccc4C(F)(F)F)ccc3c2=O)c1,·,-8,-0.2,·
CC(C)Oc1ccc(C2CC(=O)NNC2=O)cc1 (stereo not given),3,-21,1.1,-0.023
C[C@@H]1CN([C@@H](C)CO)C(=O)c2cc(NC(=O)C3CCCCC3)ccc2O[C@@H]1CN(C)S(=O)(=O)c1ccccc1,·,-9,1.0,0.41
CCN(CC)C(=S)SC1=CCS(=O)(=O)C1,-45,1,0.6,0.49
CCOC(=O)CSc1nncc(=O)[nH]1,-10,-21,0.1,-0.63
Cc1onc(-c2ccccc2)c1C(=O)N(CCC#N)CCC#N,·,-15,1.6,·
Cc1ccc2nc(-c3ccc(NC(=O)CCN4C(=O)c5ccccc5C4=O)cc3)[nH]c2c1,·,-20,1.4,·
CCn1c(SCC(=O)Nc2ccc(F)cc2)nnc1-c1ccc(Cl)cc1Cl,·,57,0.6,·
C[C@H]1CN([C@@H](C)CO)C(=O)Cc2cc(NC(=O)CCCCCC(=O)Nc3ccccc3N)ccc2O[C@@H]1CN(C)S(=O)(=O)c1cn(C)cn1,·,-10,1.3,-0.086
C[C@@H]1CN([C@H](C)CO)C(=O)c2cc(NC(=O)Nc3ccc(C(F)(F)F)cc3)ccc2O[C@H]1CN(C)Cc1ccc(C(F)(F)F)cc1,4,15,-10,0.083
COc1ccc(N(CC(=O)Nc2ccccc2F)S(C)(=O)=O)cc1,·,-20,2.0,·
Cc1ccc(S(=O)(=O)Nc2ccc3c(c2)C(=O)N([C@H](C)CO)C[C@H](C)[C@H](CN(C)C(=O)c2ccncc2)OCCCC[C@@H](C)O3)cc1,-25,-5,·,0.22
O=S(=O)(c1ccccc1)N1N=C(c2ccccc2)CC1c1ccco1 (stereo not given),·,64,-3.4,·
Cc1ccc(NC(=O)CN(c2cc(Cl)c(Cl)cc2Cl)S(C)(=O)=O)cc1Cl,·,50,0.0,·
CCC(C)C(O)C(C)(O)/C=C/C1=CC2=C(Cl)C(=O)C(C)(O)C(O)C2=CO1 (stereo not given),8,4,0.1,-0.47
COc1ccc(NC(=O)Nc2cccc3c2O[C@H](CN(C)C(=O)NC(C)C)[C@H](C)CN([C@H](C)CO)C3=O)cc1,4,2,-0.1,-0.073
C[C@H](CO)N1C[C@H](C)[C@H](CN(C)S(=O)(=O)c2cccs2)Oc2c(NC(=O)Nc3ccccc3)cccc2C1=O,0,4,·,0.61
C[C@@H]1CN([C@@H](C)CO)C(=O)c2cccc(N(C)C)c2O[C@@H]1CN(C)Cc1ccc(-c2ccccc2)cc1,-41,-3,1.4,-0.31
C[C@H](CO)N1C[C@H](C)[C@H](CN(C)Cc2ccc(-c3ccccc3)cc2)Oc2c(NS(=O)(=O)c3cccs3)cccc2C1=O,15,-9,-0.6,-0.21
C[C@@H]1CN([C@H](C)CO)C(=O)c2cc(NC(=O)Nc3ccc(C(F)(F)F)cc3)ccc2O[C@@H]1CN(C)S(C)(=O)=O,-19,-4,-1.0,0.26
Cc1cccc(OCC(=O)Nc2ccccc2C(=O)NC(C)(C)C)c1,·,-15,-3.0,·
CC(N=C(NC#N)Nc1ccncc1)C(C)(C)C (stereo not given),-114,-17,·,-0.41
C[C@@H]1CN([C@H](C)CO)C(=O)c2cc(NC(=O)Nc3ccccc3)ccc2O[C@H]1CN(C)C(=O)Nc1ccccc1,-40,-7,0.2,-0.34
Cc1ccc(S(=O)(=O)Nc2ccc3c(c2)CC(=O)N([C@H](C)CO)C[C@@H](C)[C@@H](CN(C)Cc2ccc(Oc4ccccc4)cc2)O3)cc1,35,0,-1.0,0.095
COc1ccc(CN(C)C[C@@H]2Oc3c(NS(=O)(=O)c4ccc(C)cc4)cccc3C(=O)N([C@H](C)CO)C[C@@H]2C)cc1,3,1,1.1,-0.056
Oc1ccc2oc3c(c2c1/C=N/N1CCCCC1)CCCC3,-44,19,1.8,-0.11
C[C@H]1CN([C@@H](C)CO)C(=O)c2cc(NC(=O)Nc3ccccc3)ccc2O[C@@H]1CN(C)C(=O)Nc1ccc(C(F)(F)F)cc1,-14,8,0.0,0.064
Cc1noc(C)c1S(=O)(=O)Nc1cccc2c1O[C@@H](CN(C)S(=O)(=O)c1ccccc1)[C@@H](C)CN([C@H](C)CO)C2=O,14,-14,·,-0.49
CNC(=O)c1ccc2nc(N)sc2c1,-27,-7,-0.2,-0.15
C[C@@H]1CN([C@H](C)CO)C(=O)c2cccc(N(C)C)c2O[C@@H]1CN(C)Cc1ccc2c(c1)OCO2,-24,-5,1.6,-0.25
Cn1nnnc1SCC(=O)Nc1cccc(NC(=O)C23CC4CC(CC(C4)C2)C3)c1,·,-44,-2.4,·
COc1ccc(CN(C)C[C@@H]2Oc3c(NC(=O)Nc4ccc(OC)cc4)cccc3C(=O)N([C@@H](C)CO)C[C@H]2C)cc1,-5,57,-6.5,0.07
C[C@H](CO)N1C[C@H](C)[C@H](CN(C)Cc2ccc(-c3ccccc3)cc2)Oc2c(NC(=O)C3CCOCC3)cccc2C1=O,?,-6,-1.1,-0.35

# A second format for 18 compounds above.
SMILES | Hedgehog inh | MITF inh | PD-1 reverse act | YB-1 expr inh
COc1ccc(NC(=O)Nc2cccc3c2O[C@H](CN(C)C(=O)NC(C)C)[C@H](C)CN([C@H](C)CO)C3=O)cc1 | 4 | 2 | -0.1 | -0.073
C[C@H](CO)N1C[C@H](C)[C@H](CN(C)S(=O)(=O)c2cccs2)Oc2c(NC(=O)Nc3ccccc3)cccc2C1=O | 0 | 4 | · | 0.61
C[C@@H]1CN([C@@H](C)CO)C(=O)c2cccc(N(C)C)c2O[C@@H]1CN(C)Cc1ccc(-c2ccccc2)cc1 | -41 | -3 | 1.4 | -0.31
C[C@H](CO)N1C[C@H](C)[C@H](CN(C)Cc2ccc(-c3ccccc3)cc2)Oc2c(NS(=O)(=O)c3cccs3)cccc2C1=O | 15 | -9 | -0.6 | -0.21
C[C@@H]1CN([C@H](C)CO)C(=O)c2cc(NC(=O)Nc3ccc(C(F)(F)F)cc3)ccc2O[C@@H]1CN(C)S(C)(=O)=O | -19 | -4 | -1.0 | 0.26
Cc1cccc(OCC(=O)Nc2ccccc2C(=O)NC(C)(C)C)c1 | · | -15 | -3.0 | ·
CC(N=C(NC#N)Nc1ccncc1)C(C)(C)C (stereo not given) | -114 | -17 | · | -0.41
C[C@@H]1CN([C@H](C)CO)C(=O)c2cc(NC(=O)Nc3ccccc3)ccc2O[C@H]1CN(C)C(=O)Nc1ccccc1 | -40 | -7 | 0.2 | -0.34
Cc1ccc(S(=O)(=O)Nc2ccc3c(c2)CC(=O)N([C@H](C)CO)C[C@@H](C)[C@@H](CN(C)Cc2ccc(Oc4ccccc4)cc2)O3)cc1 | 35 | 0 | -1.0 | 0.095
COc1ccc(CN(C)C[C@@H]2Oc3c(NS(=O)(=O)c4ccc(C)cc4)cccc3C(=O)N([C@H](C)CO)C[C@@H]2C)cc1 | 3 | 1 | 1.1 | -0.056
Oc1ccc2oc3c(c2c1/C=N/N1CCCCC1)CCCC3 | -44 | 19 | 1.8 | -0.11
C[C@H]1CN([C@@H](C)CO)C(=O)c2cc(NC(=O)Nc3ccccc3)ccc2O[C@@H]1CN(C)C(=O)Nc1ccc(C(F)(F)F)cc1 | -14 | 8 | 0.0 | 0.064
Cc1noc(C)c1S(=O)(=O)Nc1cccc2c1O[C@@H](CN(C)S(=O)(=O)c1ccccc1)[C@@H](C)CN([C@H](C)CO)C2=O | 14 | -14 | · | -0.49
CNC(=O)c1ccc2nc(N)sc2c1 | -27 | -7 | -0.2 | -0.15
C[C@@H]1CN([C@H](C)CO)C(=O)c2cccc(N(C)C)c2O[C@@H]1CN(C)Cc1ccc2c(c1)OCO2 | -24 | -5 | 1.6 | -0.25
Cn1nnnc1SCC(=O)Nc1cccc(NC(=O)C23CC4CC(CC(C4)C2)C3)c1 | · | -44 | -2.4 | ·
COc1ccc(CN(C)C[C@@H]2Oc3c(NC(=O)Nc4ccc(OC)cc4)cccc3C(=O)N([C@@H](C)CO)C[C@H]2C)cc1 | -5 | 57 | -6.5 | 0.07
C[C@H](CO)N1C[C@H](C)[C@H](CN(C)Cc2ccc(-c3ccccc3)cc2)Oc2c(NC(=O)C3CCOCC3)cccc2C1=O | ? | -6 | -1.1 | -0.35

# New compounds follow:
SMILES,Hedgehog inh,MITF inh,PD-1 reverse act,YB-1 expr inh
COc1ccc(C(=O)NCC(=O)Nc2ccc(C)c(Cl)c2)cc1OC,·,-18,0.5,·
Cc1ccc(C(=O)Cn2c3c(sc2=N)CCCC3)cc1,76*,88*,·,0.091
Cc1noc(C)c1NC(=O)N(C)C[C@H]1Oc2ccc(NC(=O)C3CC3)cc2CC(=O)N([C@@H](C)CO)C[C@H]1C,4,1,2.0,0.051
C[C@@H]1CN([C@H](C)CO)C(=O)c2cc(NC(=O)CCC(F)(F)F)ccc2O[C@H]1CN(C)C(=O)Nc1cccc2ccccc12,·,-2,0.5,0.74
C[C@@H]1CCCCO[C@@H](CN(C)C(=O)c2ccncc2)[C@@H](C)CN([C@H](C)CO)C(=O)c2cc(NS(=O)(=O)c3ccc(F)cc3)ccc2O1,-2,3,·,0.056
Cc1ccc(S(=O)(=O)N(C)C[C@H]2Oc3ccc(NC(=O)Cc4ccccc4)cc3CC(=O)N([C@@H](C)CO)C[C@H]2C)cc1,1,2,-1.0,0.27
O=C(OC1C(c2c(O)cc(O)c(C(=O)c3ccc(O)cc3)c2O)OC(CO)C(O)C1O)c1cc(O)c(O)c(O)c1 (stereo not given),-15,-4,-0.6,-0.049
COc1ccccc1-c1coc2cc(O)ccc2c1=O,?,-16,·,-0.23
C[C@H]1CN([C@@H](C)CO)C(=O)c2cc(NC(=O)Nc3ccc(C(F)(F)F)cc3)ccc2O[C@H]1CN(C)Cc1ccc(-c2ccccc2)cc1,11,10,-5.6,-0.19
O=C(CSc1nnc(-c2ccccc2O)n1-c1ccccc1)Nc1ccc2c(c1)OCCO2,·,6,-1.3,·
C[C@@H]1CN([C@H](C)CO)C(=O)c2cccc(NC(=O)c3nc4ccccc4s3)c2O[C@H]1CN(C)C,-17,1,-0.9,-0.015
C[C@H]1CN([C@@H](C)CO)C(=O)c2cccc(NC(=O)c3nc4ccccc4s3)c2O[C@@H]1CN(C)CC1CCCCC1,11,15,-4.4,0.44

# Only part of the results is shown; the hit share may differ from the screen's.
